Env fusion inh: inhibitors of HIV-1 Env-driven cell-cell fusion, primary screen, HeLa-JRFL effector, CEM21 target cells, luciferase. 360,000 tested, 1.1% active. inhibition, % at 12.3 µM;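 active = mean replicate inhibition score of at least 50 and every replicate individually at or above 50; inconclusive = only one of the two criteria met; inactive = mean below 50 and not all replicates reaching 50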;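 also: 0% = plate neutral controls and 100% = maraviroc near 300 nM; one replicate is shown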
Rce1 inh: yeast Rce1p protease inhibitors, primary screen, biochemical, fluorescence, cell-free homogeneous | CAAX prenyl protease 2 (Saccharomyces cerevisiae (strain ATCC 204508 / S288c)), Q03530 | yeast membranes, quenched prenylated peptide cleavage fluorescence | calls only | 290,000 tested, 0.27% active | AID 2563, 2010;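 active = fall in fluorescence gain of 50% or more versus controls, with final raw signal at or below 3038400; inconclusive = same 50% fall but final raw signal above 3038400; inactive = fall in fluorescence gain under 50%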;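 also: plate controls were neutral control wells for no effect and wells lacking membranes for full effect; tested at 10 µM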
MT1-MMP act inh: blockers of MT1-MMP proenzyme processing, primary screen, HT1080 RFP-PRO-GFP cells, GFP/RFP fluorescence | GFP/RFP ratio fluorescence, overnight; percent of plate control window, DMSO zero | 360,000 tested, 0.061% active | Matrix metalloproteinase-14 (Homo sapiens), P50281 | GFP/RFP ratio change, % at 20 µM | AID 651647, 2012;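 active = GFP/RFP ratio change of at least 30% with cell ATP level not reduced by more than half and red fluorescence within 50% of control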; also: strong numbers were not always called active
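Assay system – RFP-PRO-GFP reporter HT1080 cells · Compound dosing – single dose of 20 µM compound, 1% DMSO final · Incubation – overnight compound exposure at 37 °C · Measure – GFP/RFP fluorescence ratio · Benchmarks – DMSO wells and RFP-L50D-GFP cells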
CSC inhib: cancer stem cell viability inhibitors, primary screen, luminescence | cancer stem cell-like cells viability | inhibition, % at 7.5 µM | 300,000 tested, 1.1% active | AID 2717, 2010;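 active = mean at 75% or more and at least half the replicates too; inconclusive = mean and replicates disagree; tested in HMLE shEcad cells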;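 also: 0% = median of negative and 100% = median of positive control wells; the first replicate is given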
PABP FP inh: PABP poly(A) RNA binding inhibitors, primary screen, biochemical, fluorescence polarization, uHTS. Polyadenylate-binding protein 1 (Homo sapiens), P11940. inhibition, % at 35 µM. 290,000 tested, 1% active. AID 2014, 2009;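 active = 50% or more with normal probe brightness, or confirmed in later tests; inconclusive = above 50% with abnormal brightness, or retests that disagree; inactive = below 50% or failed in later tests; about a fifth of its hits are not listed in these tables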;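 also: calls also rest on retests at 20 µM and on dose response follow-up; controls were probe without protein and protein plus probe with vehicle; some compounds called inactive have numbers as strong as hits; many hits fall short of the cut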
Target sequence (P11940 whole entry, looked up): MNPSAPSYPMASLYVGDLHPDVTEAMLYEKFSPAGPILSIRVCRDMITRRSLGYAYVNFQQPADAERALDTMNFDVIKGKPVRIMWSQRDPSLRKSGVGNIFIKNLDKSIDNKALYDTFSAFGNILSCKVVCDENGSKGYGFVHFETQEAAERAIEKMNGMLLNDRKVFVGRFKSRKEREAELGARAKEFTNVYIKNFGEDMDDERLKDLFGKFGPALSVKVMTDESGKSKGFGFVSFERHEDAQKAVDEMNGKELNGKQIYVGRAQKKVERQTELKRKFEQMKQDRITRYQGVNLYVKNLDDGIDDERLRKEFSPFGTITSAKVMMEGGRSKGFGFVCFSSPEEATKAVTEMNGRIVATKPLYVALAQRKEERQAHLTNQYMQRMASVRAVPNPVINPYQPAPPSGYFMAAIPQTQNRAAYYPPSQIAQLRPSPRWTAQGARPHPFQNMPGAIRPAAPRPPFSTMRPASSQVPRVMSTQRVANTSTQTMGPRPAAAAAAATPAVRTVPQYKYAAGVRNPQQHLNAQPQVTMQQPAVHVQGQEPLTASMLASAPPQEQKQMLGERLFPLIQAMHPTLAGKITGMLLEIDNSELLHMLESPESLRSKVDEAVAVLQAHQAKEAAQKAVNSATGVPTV
eIF4H FP inh: human eIF4H binding inhibitors, primary screen, translation initiation inhibitor project, biochemical, uHTS, fluorescence polarization; inhibition, % at 35 µM; AID 2012, 2009; Eukaryotic translation initiation factor 4H (Homo sapiens), Q15056; eIF4H fluorescence polarization binding assay; 290,000 tested, 0.94% active;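 active = 50% or more with normal probe brightness, or confirmed in later tests; inconclusive = above 50% with abnormal brightness, or retests that disagree; inactive = below 50% or failed in later tests; about a fifth of its hits are not listed in these tables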;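 also: calls also rest on retests at 20 µM and on dose response follow-up; 0% = protein and probe with vehicle and 100% = probe without protein; strong numbers were not always called active; many hits fall short of the cut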
Yeast UUG start: modulators of yeast start codon fidelity, primary screen, whole organism, S. cerevisiae, single point, plate reader; S. cerevisiae UUG-firefly luciferase reporter, luminescence/redox ratio; activity score, % at 18.7 µM; 350,000 tested, 0.13% active;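 active = replicate mean at a twofold rise or more, about +100% in these data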;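 also: firefly luciferase made from a UUG start codon reports start codon fidelity; reporter light over untreated wells divided by growth signal over untreated wells; some hits fall short of that in this replicate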
MT1-MMP act inh RFP: also measured in MT1-MMP act inh; calls as there; RFP signal change, %; measured here: RFP expression control read;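 0 = vehicle wells; hits needed this value within 50% of zero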
An asterisk follows results filed as active; i = inactive; ? = inconclusive; nt = no result given; & = joins results of further samples. This is a subset; count on the stated rates, not on these rows.

SMILES	Env fusion inh	Rce1 inh	MT1-MMP act inh	MT1-MMP act inh RFP	CSC inhib	PABP FP inh	eIF4H FP inh	Yeast UUG start
CC1=[N+]([O-])C(C)(C)N(O)C1(C)C	1	i	-2	1	-7	-7	-9	nt
COc1cccc(N=CNc2cccc(OC)c2)c1	-23	nt	7	7	nt	nt	nt	-6
S=C(NCCc1ccccc1)NCC1CCCO1 (stereo not drawn)	-11	i	2	6	11	7	5	nt
CCOc1cc(/C=C2\SC(=S)N(C(C(=O)O)c3ccccc3)C2=O)ccc1O (stereo not drawn)	6	i	-27	56	10	-3	17	0
CCOc1ccc(OCCC(=O)N2CCN(S(=O)(=O)c3ccc(OCC)cc3)CC2)cc1	3	i	-2	-2	-6	9	4	-21
CCN(CC)CCN(C(=O)c1ccc(Br)s1)c1nc2cc3c(cc2s1)OCO3	3	i	1	2	-5	-11	-7	nt
O=C(C[n+]1cc(-c2ccccc2)n2c1CCC2)Nc1nc(-c2ccc(F)cc2)cs1	6	i	-7	-8	-29	-4	-15	nt
CCOc1ccc(C(Nc2ccc(C)cc2)P2(=O)OCCC(C)O2)cc1 (stereo not drawn)	nt	i	-1	7	-7	9	-4	-1
O=S(=O)(NC1C2CC3CC(C2)CC1C3)c1ccc(F)cc1 (stereo not drawn)	37	nt	6	0	nt	nt	nt	-4
O=C1NN(c2ccccc2)C(=O)/C1=C\c1cccc(OC(=O)c2cccs2)c1	nt	i	2	4	45	19	9	-10
O=C(c1ccc(Cl)cc1)N1CCC(O)(CSc2ccc(Cl)cc2Cl)CC1	nt	i	2	-8	33	3	-10	-15
Nn1c(SCc2ccc(Br)cc2)nnc1-c1ccncc1	7	i	8	9	4	-3	-6	nt
COc1cc(CCC(=O)OCC(=O)Nc2ccccc2OC(F)F)cc(OC)c1OC	-7	i	2	3	-21	-5	-5	nt
CC1(C)CC(=O)C(C=NCCN2CCN(CCCCS(=O)(=O)O)CC2)=C(O)C1	-149	i	-1	1	1	-1	-5	3
CCCCC(=O)N(C)c1c(CC)nc2c(OCc3ccc(C(F)(F)F)cc3)cccn12	-13	nt	-2	-15	nt	nt	nt	-10
CC[C@@H]1CC=C[C@H]2[C@H]1C(=O)N(Cc1ccccc1)[C@H]2c1ccc(OC)c(Cl)c1	32	i	-7	-12	77*	-2	0	-5
COc1cc(O)c(C(CCN2CCCC(C)C2)c2cc(OC)c(OC)c(OC)c2)c(OC)c1 (stereo not drawn)	-32	i	3	2	-4	-13	2	1
COC(=O)c1ccc(COc2ccc(/C=N/O)cc2)o1	-3	i	-1	2	nt	-10	2	nt
O=C(Cc1ccc2c(c1)OCCO2)c1c(O)cc(O)cc1O	nt	i	27	-3	22	-2	-16	-2
CC1CCCCN1C(=O)Cn1c(=O)n(C2CCCCC2)c(=O)c2ccccc21 (stereo not drawn)	nt	i	-1	3	-9	-17	-10	-23

A different layout for 3 compounds above:
Sequence of screens: Env fusion inh, Rce1 inh, MT1-MMP act inh, MT1-MMP act inh RFP, CSC inhib, PABP FP inh, eIF4H FP inh, Yeast UUG start
Nn1c(SCc2ccc(Br)cc2)nnc1-c1ccncc1
  7, i, 8, 9, 4, -3, -6, nt
COc1cc(CCC(=O)OCC(=O)Nc2ccccc2OC(F)F)cc(OC)c1OC
  -7, i, 2, 3, -21, -5, -5, nt
CC1(C)CC(=O)C(C=NCCN2CCN(CCCCS(=O)(=O)O)CC2)=C(O)C1
  -149, i, -1, 1, 1, -1, -5, 3

(continued)
SMILES	Env fusion inh	Rce1 inh	MT1-MMP act inh	MT1-MMP act inh RFP	CSC inhib	PABP FP inh	eIF4H FP inh	Yeast UUG start
CCc1ccc(NS(=O)(=O)c2cc3c4c(c2)CCN4C(=O)CC3)cc1	nt	i	5	0	-1	nt	nt	17
Cc1ccc(C23CC4CC(CC(CC(=O)NC(C)(C)CO)(C4)C2)C3)cc1	13	i	-4	-10	17	-3	0	5
CCN1CCN(C(=O)c2cc(COc3c(C)cccc3C)on2)CC1	2	i	6	3	-5	-4	-12	-13
C=CCn1c(Cc2cccc3ccccc23)n[nH]c1=S	nt	i	-3	-4	0	0	2	-8
COc1ccc(-c2ccccc2NC(=O)C2CCCN(Cc3ccco3)C2)cc1 (stereo not drawn)	3	i	-4	1	4	-3	-7	-10
Cc1[nH]c2ccccc2c1CN1CCC(CO)(Cc2ccccc2)CC1	-16	i	-4	1	5	-6	-2	nt
COc1ccc(CCNC2CC(=O)N(C3CCCCC3)C2=O)cc1OC (stereo not drawn)	13	i	0	0	1	-11	6	-8
O=C1C(=O)N(Cc2ccncc2)C(c2cccc(O)c2)/C1=C(\O)c1ccc2c(c1)OCCO2 (stereo not drawn)	-6	i	-1	3	-6	2	1	-14
CC(C(=O)OCC(=O)c1cccc([N+](=O)[O-])c1)N1C(=O)C2C3C=CC(C3)C2C1=O (stereo not drawn)	-5	i	0	2	-12	-4	16	-13
CN(C(=O)CSc1nnc(-c2c[nH]c3ccccc23)n1C1CC1)C1CCS(=O)(=O)C1 (stereo not drawn)	-6	nt	2	3	nt	nt	nt	11
Cc1cc(C)nc(N2CCC(C(=O)NCc3ccco3)CC2)n1	-54	i	3	6	nt	0	8	-10
CC(C)(C)N1OC2CC1c1nc3ccccc3n1C2 (stereo not drawn)	4	i	-3	-2	-8	6	2	-17
Cc1c(C(=O)N(Cc2nccn2C)C(C)C)oc2c(F)cccc12	2	i	3	3	-7	-2	-11	-12
O=C(CNC(=S)N(CCCN1CCOCC1)Cc1cccs1)NC1CCCC1	-2	nt	4	5	-7	-4	4	-2
COc1c(C)cc(Br)cc1C(=O)Nc1cccc(-c2nc3ncccc3o2)c1	15	i	6	-5	20	-2	-6	-6
CCN1CCN(c2cc3nc(C)n(Cc4ccccc4)c(=O)c3cc2NC(=O)c2ccccc2F)CC1	-6	nt	1	3	8	6	-2	nt
COc1ccc(CN(CC2CCCO2)C(=O)c2cc3ccccc3oc2=O)cc1 (stereo not drawn)	5	i	-3	-3	-15	-14	-2	nt
Cc1cc(=O)oc2cc(NC(=O)c3cc(F)ccc3F)ccc12	nt	nt	1	-1	-3	nt	nt	-11
CS(=O)(=O)N(CC(=O)Nc1ccccc1C(=O)N1CCOCC1)c1ccc(Cl)cc1	14	i	-2	4	-10	5	-1	-6
Cc1cc(NC(=O)c2cc(C(C)C)on2)no1	-56	i	10	4	1	1	2	nt
Cc1ccccc1-c1nn[nH]n1	-113	i	2	4	-5	10	-1	-10
CS(=O)(=O)c1nc(S(=O)(=O)c2ccc(Cl)cc2)c(N2CCCCCC2)s1	10	i	1	0	3	1	1	-7
COc1ccccc1-c1cnc2c(c1)C(=O)N([C@@H](C)CO)C[C@H](C)[C@H](CN(C)C)O2	11	nt	-1	2	nt	nt	nt	-16&-3&5
C[C@H](NC(=O)c1ccco1)C(=O)NCCc1ccc(S(N)(=O)=O)cc1	3	i	-4	0	-4	2	48	-3
CCN(CC)c1ccc(NC(=O)C2CCCC2)cc1	1	i	0	3	-3	6	-2	-5
CCOc1cc(N2CCOCC2)c(OCC)cc1NC(=O)c1ccco1	21	i	0	0	-5	11	-2	nt
Cc1ccccc1C1(CCN2CCCCC2)CCOC(C)(C)C1 (stereo not drawn)	8	i	-3	0	-8	0	3	nt
COCCCn1c2nc3ccccc3nc2c2c(=O)n(CC3CCCO3)cnc21 (stereo not drawn)	nt	i	14	7	-9	4	1	-13
CCOc1ccc(S(=O)(=O)n2cnc3cc(C)c(C)cc32)cc1	nt	i	6	-15	21	-4	2	-18
COc1ccccc1NC(=O)c1ccc(NC(=O)CN2CCCCC2)cc1	-18	nt	5	1	-11	nt	nt	-7

Quoted at random: 4 compounds from above, in no set order.
SMILES	Env fusion inh	Rce1 inh	MT1-MMP act inh	MT1-MMP act inh RFP	CSC inhib	PABP FP inh	eIF4H FP inh	Yeast UUG start
CCOc1cc(N2CCOCC2)c(OCC)cc1NC(=O)c1ccco1	21	i	0	0	-5	11	-2	nt
COc1ccccc1-c1cnc2c(c1)C(=O)N([C@@H](C)CO)C[C@H](C)[C@H](CN(C)C)O2	11	nt	-1	2	nt	nt	nt	-16&-3&5
COCCCn1c2nc3ccccc3nc2c2c(=O)n(CC3CCCO3)cnc21 (stereo not drawn)	nt	i	14	7	-9	4	1	-13
COc1ccccc1NC(=O)c1ccc(NC(=O)CN2CCCCC2)cc1	-18	nt	5	1	-11	nt	nt	-7

Remaining list, next part:
SMILES	Env fusion inh	Rce1 inh	MT1-MMP act inh	MT1-MMP act inh RFP	CSC inhib	PABP FP inh	eIF4H FP inh	Yeast UUG start
Cc1ccc2c(c1)NC(=O)C(CC(=O)NCCCN1CCCC1)O2 (stereo not drawn)	13	i	2	7	-3	2	6	-7
Cc1cc(C)c2c(-n3cccc3)c(C(=O)O)sc2n1	-62	i	4	4	4	-14	-5	-19
CCOC(=O)C1=C(CN2CC(C)CC(C)C2)NC(=O)NC1c1ccc2c(c1)OCO2 (stereo not drawn)	2	nt	2	-4	9	-18	-8	nt
CC(=O)Cc1nsc(NC(=O)c2ccc(-c3cccc(C(F)(F)F)c3)o2)n1	-122	i	0	-14	-4	-1	2	-1
Oc1cc(NCc2ccc(F)cc2)cc2cccnc12	50	nt	-13	-6	nt	nt	nt	-27
Cc1ccc(NC(=O)C2CCCN(S(=O)(=O)c3cccc4nonc34)C2)cc1 (stereo not drawn)	12	i	-2	-1	nt	-7	6	-16
COc1ccc(CCCC(=O)O)c(C)c1	2	i	-2	6	-7	?	-7	0
Cc1ccc2nc(-c3cccc(NS(C)(=O)=O)c3)cc(-c3ccccc3)c2c1	nt	i	-1	3	115*	4	11	nt
NC(=O)c1ccccc1N/C=C/C(=O)c1ccc(Cl)cc1Cl	nt	i	-8	-2	nt	1	-16	-23
COc1ccc(N2CC(C(=O)Nc3nc4ccc(F)cc4s3)CC2=O)c(OC)c1 (stereo not drawn)	9	i	-9	-6	-11	8	-8	11
CC(=O)Nc1ccc(S(=O)(=O)N2CN(c3ccc(C)cc3)c3nc4ccccc4nc32)cc1	-6	i	-2	-3	-23	4	1	-5
Cn1ncc(C(N)=O)c1NC(=S)NC(=O)c1ccc(Br)o1	4	i	2	7	0	4	6	nt
CCOC(=O)C1=C(Cc2ccc(OC)cc2)C(=O)c2ccccc2C1=O	nt	nt	-46	86	nt	?	?	-27
COc1ccccc1CNC(=O)CSC1=NCCS1	-5	i	-2	0	-10	3	-8	0
CCOCCCNC(=O)CN1C(=O)/C(=C/c2ccccc2C)Sc2ccccc21	17	i	6	3	nt	8	1	-44
Cc1cccc(C)c1NC(=O)CCCCCC1NC(=O)NC1C (stereo not drawn)	-16	i	2	-2	-21	7	-8	14
Cc1nn(Cc2ccccc2Cl)c(Cl)c1C(=O)NCCc1ccccc1	-57	nt	0	-6	-9	-3	-6	nt
